Menin-MLL FL inh – displaces fluorescein MLL peptide from human menin. AID 1766. FP activity change, % at 61.4 µM. Fluorescence polarization, fluorescein-MLL peptide displacement from menin. 290,000 tested, under 10 active; inconclusive = falling polarisation curve, or a change in total fluorescence; inactive = total fluorescence flat and polarisation flat or rising; no compound was filed as active; the % refers to the polarisation; negative = inhibition;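 note: % of control where 0% means no effect; inhibitors lower the polarisation; unlabelled MLL peptide was the positive control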
D2 potentiator – positive allosteric modulators of human D2 dopamine receptor | P14416 | DiscoveRx D2 beta-arrestin cells, luminescence, 90 min; 100% = 57 uM dopamine signal | potentiation, % (no concentration beside the values) | 360,000 tested, 0.23% active; active = potentiation of 50% or more; inconclusive = 30% to 50%; inactive = 30% or less;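 note: compound concentration not given in the record; tested on top of an EC20 dose of dopamine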
Target sequence (P14416 whole entry, looked up): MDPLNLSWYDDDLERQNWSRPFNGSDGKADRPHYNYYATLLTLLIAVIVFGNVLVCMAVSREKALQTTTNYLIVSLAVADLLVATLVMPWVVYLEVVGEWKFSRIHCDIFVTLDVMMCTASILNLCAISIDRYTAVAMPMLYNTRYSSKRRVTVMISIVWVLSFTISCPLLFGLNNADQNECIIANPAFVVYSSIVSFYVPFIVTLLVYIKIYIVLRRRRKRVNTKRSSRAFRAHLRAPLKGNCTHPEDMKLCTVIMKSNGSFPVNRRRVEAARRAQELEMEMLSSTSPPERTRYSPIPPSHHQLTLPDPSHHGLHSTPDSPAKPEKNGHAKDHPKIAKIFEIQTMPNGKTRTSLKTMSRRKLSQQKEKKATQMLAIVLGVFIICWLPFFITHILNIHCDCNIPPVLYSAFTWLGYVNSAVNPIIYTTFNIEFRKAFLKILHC
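D2 cells co-treated with compound plus 50 nM dopamine (EC20) for 90 min at 37 deg C to detect potentiation. Beta-arrestin recruitment was read as enzyme-fragment luminescence after 1 h at ambient temperature. Full response was set by 57 uM dopamine.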
Sfp inh – blocks B. subtilis Sfp PPTase activity; Potency, µM, without a hit: max response, negative = inhibition, actives largely listed as inhibitors; Q9F4F7; AID 1490; 310,000 tested, 3.5% active; Biochemical Sfp PPTase activity, qHTS; active = well fitted inhibition curve with a large enough effect; inconclusive = small, poorly fitted or top-dose-only effect, or another doubt; inactive = no such curve, though single readings can be large or run the other way;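 note: the enzyme is Sfp with the accession as filed and its product quenches rhodamine fluorescence; potency is the fitted concentration of half-maximal effect; 0% = enzyme reaction without inhibitor and -100% = no enzyme wells; top concentration of the series not given in the record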
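Step 1, compound plus 15 nM Sfp-PPTase, 15 min, room temperature. Step 2, add rhodamine-CoA (5 uM) and BHQ-2-YbbR (12.5 uM). Step 3, read 525/598 nm fluorescence at 0 and 30 min.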
gsp agonist – gsp mutant agonism; Potency, µM (titrated, usually from 76.9 µM), for inactives: at the highest dose activation (cAMP increase), usual class: activators; gsp mutant cells, cAMP HTRF, 30 min; control for the full effect not named in the record; 340,000 tested, 0.13% active; active = well fitted activation curve with a large enough effect; inconclusive = small, poorly fitted or top-dose-only effect, or another doubt; inactive = no such curve, though single readings can be large or run the other way; cell line not stated here;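 note: phosphodiesterase inhibitor Ro 20-1724 added with compounds to block cAMP breakdown; potency is the fitted concentration of half-maximal effect; nearly all actives have a fitted effect of over 60% in size; about a fifth of the inactives were tested at one dose only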
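Cells in DMEM/10% FBS with G418 were pretreated with compounds in DMSO plus […] (300 uM stock) for 30 min at 37C. cAMP was measured by HTRF (cAMP-d2 plus anti-cAMP antibody-K) after 30 min at room temperature.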
TRPV1 potentiator – potentiators of human vanilloid receptor 1 (TRPV1); 320,000 tested, 0.02% active; potentiation, % at 8.33 µM; Q8NER1; TRPV1-expressing cells, Fluo-8 calcium influx, capsaicin EC20 potentiation; host cell line not named in the record; control for the full effect not named in the record; active means potentiation above 80%; inconclusive means 30% to 80%; inactive means below 30%; note: 0% is about no effect
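Cells expressing TRPV1 were dye-loaded with Fluo-8 and read kinetically: 10 s baseline, 3 min after compound (agonist portion), then 2 min after EC20 capsaicin (allosteric enhancer portion). Calcium-bound dye fluorescence at 480/520 nm.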
ClpP mod – qHTS Assay for Activators of ClpP; ATP-dependent Clp protease proteolytic subunit (Bacillus subtilis (strain 168)), P80244; purified B. subtilis ClpP, FRET peptide cleavage, 20 min; Potency, µM (doses to about 57.5 µM), without a hit: at the top dose activity change, negative = active; 340,000 tested, 1.9% active; AID 651965, 2013; active = well fitted falling curve with a large enough effect; inconclusive = small, poorly fitted or top-dose-only effect; inactive = no such curve, though single readings can be large or run the other way; note: potency is the fitted concentration of half-maximal effect; the source files actives as falling curves though it sought activators and does not explain the sign; nearly all actives have a fitted effect of over 65% in size; many hits overshoot -100%
Target sequence (P80244 whole entry, looked up): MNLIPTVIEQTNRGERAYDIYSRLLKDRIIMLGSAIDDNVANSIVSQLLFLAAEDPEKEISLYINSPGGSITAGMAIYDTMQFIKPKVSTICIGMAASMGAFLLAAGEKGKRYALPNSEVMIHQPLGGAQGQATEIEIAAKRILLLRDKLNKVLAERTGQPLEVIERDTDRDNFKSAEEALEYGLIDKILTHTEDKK
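ClpP 10 microg/mL final, pH 8 Tris/KCl buffer with BSA, glycerol, Tween-20; compound pinned in; FRET-FV substrate; RT 20 min; Ex320/Em430; ΔFRET vs ADEP 5.8 microM, DMSO, no enzyme.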
gsp antagonist – gsp mutant antagonism; Potency, µM (top dose mostly 76.9 µM), for inactives: at the highest dose activity change, negative = inhibition, hits mostly inhibitors; 340,000 tested, 0.4% active; gsp-mutant cells, cAMP HTRF, 30 min; control for the full effect not named in the record; active = falling curve of any shape with a large fitted effect; inconclusive = falling curve, mostly with a smaller effect; inactive = flat or rising curve; cell line not stated here;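 note: intracellular cAMP measured with PDE inhibitor Ro 20-1724 present during compound exposure; potency is the fitted concentration of half-maximal effect; % is set by controls: 0 for no effect and ±100 for the full control effect; nearly all actives have a fitted effect of over 65% in size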
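Cells, 2000/well, grown 16–24 h in DMEM 10% FBS with 0.5 mg/ml G418, then compounds plus […] (300 uM addition stock), 30 min at 37C. cAMP read by HTRF (cAMP-d2 and anti-cAMP antibody-K in lysis buffer) after 30 min RT.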
An asterisk follows results filed as active; ? = inconclusive; . = not tested or not shown; & = joins results of further samples; [ ] = remark or other dose. Rows were taken by chance; about 5.1% have a hit in one of these screens.

molecule,Menin-MLL FL inh,D2 potentiator,Sfp inh,gsp agonist,TRPV1 potentiator,ClpP mod,gsp antagonist
Cc1ccc2nc(N3CCN(C)CC3)c(C#N)cc2c1,0.3,-12,3%,0%,1,-11%,17%
CC(=O)Nc1ccc(C(=O)CSc2nnc3scc(-c4ccccc4)n23)cc1,-2.6,-12,3%,54%,-1,0.2%,-7%
CC(C)(C)OC(=O)N1CCC2(CC1)Oc1ccc(F)cc1C(=O)C21CC(c2ccccc2)=NO1 (stereo unspecified),.,0,.,.,.,-1.2%,-12%
CCCCCOc1ccc(NC(=O)C2OC3OC(C)(C)OC3C3OC(C)(C)OC23)cc1 (stereo unspecified),0.7,-2,16%,15%[15.4 µM],-3,.,2%
Cc1ccc(S(=O)(=O)NC(=O)Nc2ccc(C)cc2C)cc1,.,-7,9%,25%,16,2.2%,13%
Nc1nc(-c2ccccc2)cc(-c2ccccc2)n1,-0.4,-2,0%,?,5,4.3%,-11%
C[C@@H]1CN([C@H](C)CO)S(=O)(=O)c2ccc(Br)cc2O[C@@H]1CN(C)Cc1ccc(-c2ccccc2)cc1,.,-7,.,-17%,.,-2.0%,.
COCCNC(=O)CSc1nc2ccc(N3CCOCC3)cc2c(=O)n1Cc1ccc(OC)cc1,2.9,8,?,17%,6,6.3%,-10%
O=C(CN1C(=O)CCC1=O)Nc1nc(-c2ccccn2)cs1,-1.7,-8,50µM*,15%,-1,-10%,8%
COC(=O)c1cc(-c2cccc(OC)c2)c2c(=O)[nH]c(=O)n(C)c2n1,-0.2,-3,8%,?,8,.,0%
CCCOc1ccc(C(=O)ON=C2CCN(C)CC2)cc1,-0.5,-1,8%,26%,-21,0.8%,20%
O=C(NCN1CCCCC1)c1cnccn1,-0.8,6,10%,-7%,0,1.3%,6%
O/N=C/c1ccc2cccc(O)c2n1,0.8,4,?,-14%,?,-0.2%,-2%
COc1cc(Br)cc(CN2CCN(C=O)CC2)c1O,0.1,-7,9%,3%,2,-0.1%,10%
COc1cc(NC(=S)N(C)CCC#N)c(OC)cc1Cl,2.2,-2,-16%,3%[15.4 µM],-7,.,11%
COc1ccc(CNC(=O)CN(Cc2ccco2)C(=O)CNS(=O)(=O)c2ccc(C)cc2)cc1,3.3,-4,14%,12%,?,.,3%
O=C1Cc2ccccc2C(=O)N1c1ccc(F)cc1Cl,?,-1,-4%,-15%[15.4 µM],-1,.,3%
Cc1ccc2c(c1)C(=O)C(=O)N2CC(=O)Nc1ccc(N2CCOCC2)cc1,-4.6,-11,10%,-2%,-11,-0.3%,-15%
CCCc1nc2c([nH]1)C(c1cccnc1)C(C#N)=C(N)O2 (stereo unspecified),3.4,-4,-1%,-105%[inhibitor],12,-2.3%,7%
COc1ccc(OC)c(-c2cc(C(=O)NC3CCCC3)c3ccccc3n2)c1,2.7,-1,15%,-1%,-13,1.0%,0%
O=C(Nc1ccc(S(=O)(=O)N2CCCCC2)cc1)c1ccc(Cl)nc1,.,-3,.,?,.,1.3%,-23%
COCC(=O)N(C)c1nnc(-c2cnc(C)cn2)s1,0.1,-12,10%,14%,-10,560%,2%
COc1ccc(CN(Cc2ccc(C(=O)O)cc2)C(=S)Nc2ccccc2Cl)cc1OC,4.8,-2,?,8%,8,.,-15%
CCc1ccc([C@@H]2CC=C(C(=O)O)CN2S(=O)(=O)c2ccc(C)cc2)cc1,.,-8,.,.,-20,1.3%,-17%
COc1ccc(C(=O)c2sc3nc(-c4ccccc4)ccc3c2N)cc1,?,-4,-13%,?,21,1.4%,-6%

Sorted by length of the SMILES (smallest number first): 9 of the compounds above.
molecule,Menin-MLL FL inh,D2 potentiator,Sfp inh,gsp agonist,TRPV1 potentiator,ClpP mod,gsp antagonist
O=C1Cc2ccccc2C(=O)N1c1ccc(F)cc1Cl,?,-1,-4%,-15%[15.4 µM],-1,.,3%
O=C(CN1C(=O)CCC1=O)Nc1nc(-c2ccccn2)cs1,-1.7,-8,50µM*,15%,-1,-10%,8%
Cc1ccc(S(=O)(=O)NC(=O)Nc2ccc(C)cc2C)cc1,.,-7,9%,25%,16,2.2%,13%
O=C(Nc1ccc(S(=O)(=O)N2CCCCC2)cc1)c1ccc(Cl)nc1,.,-3,.,?,.,1.3%,-23%
Cc1ccc2c(c1)C(=O)C(=O)N2CC(=O)Nc1ccc(N2CCOCC2)cc1,-4.6,-11,10%,-2%,-11,-0.3%,-15%
COC(=O)c1cc(-c2cccc(OC)c2)c2c(=O)[nH]c(=O)n(C)c2n1,-0.2,-3,8%,?,8,.,0%
CCCCCOc1ccc(NC(=O)C2OC3OC(C)(C)OC3C3OC(C)(C)OC23)cc1 (stereo unspecified),0.7,-2,16%,15%[15.4 µM],-3,.,2%
COc1ccc(CNC(=O)CN(Cc2ccco2)C(=O)CNS(=O)(=O)c2ccc(C)cc2)cc1,3.3,-4,14%,12%,?,.,3%
CC(C)(C)OC(=O)N1CCC2(CC1)Oc1ccc(F)cc1C(=O)C21CC(c2ccccc2)=NO1 (stereo unspecified),.,0,.,.,.,-1.2%,-12%

(next part)
molecule,Menin-MLL FL inh,D2 potentiator,Sfp inh,gsp agonist,TRPV1 potentiator,ClpP mod,gsp antagonist
CC1CCCCC1NC(=O)C1CCN(S(=O)(=O)c2ccc3c(c2)CCC(=O)N3)CC1 (stereo unspecified),1.9,-8,-4%,-34%[inhibitor],?,1.9%,2%
C/C(=N\Nc1ccc([N+](=O)[O-])cc1[N+](=O)[O-])C(C)(C)C(C(=O)O)C(=O)O,1.5,5,-10%,11%[15.4 µM],-24,-0.6%,-15%
CC(=O)Nc1ccc(S(=O)(=O)Nc2nc3ccccc3nc2Nc2ccccc2)cc1,5.9,-2,10%,12%,2,4.5%,-9%
Cc1cc(C)c2nc(/N=C(\N)NC(=O)Nc3ccccc3)nc(C)c2c1,13,-21,-9%,1%[15.4 µM],-6,?,12%
COc1ccc(CCNC(=O)Cn2nnc(C(=O)Nc3cccc(C)c3C)c2N)cc1OC,.,-6,9%,-27%,7,-1.2%,-9%
Cc1cccc(C(=O)NC(=S)NNC(=O)c2ccc(Cl)cc2)c1,3.0,-16,-2%,3%,-32,-3.6%,-4%
CCOC(=O)c1cc(-c2c(Cl)cccc2Cl)no1,-3.5,3,-3%,-17%,-11,.,5%
COc1ccccc1NS(=O)(=O)c1cc(NC(=O)c2cccs2)ccc1N1CCOCC1,-0.8,-1,24%,7%[15.4 µM],15,.,-25%
CCc1nn(CC(=O)NCCc2ccc(OC)cc2OC)c(=O)c2cc3occc3n12,.,-4,1%,?,12,-1.9%&-2.4%,-2%
COc1ccc(OC)c(NC(=O)COC(=O)CCc2nc3ccccc3c(=O)[nH]2)c1,.,-8,.,-2%[15.4 µM],.,-0.7%,-4%
COc1ccc(Cl)cc1NC(=O)C1CC(c2ccccc2O)=NO1 (stereo unspecified),4.6,-17,6%,-4%[15.4 µM],?,-2.5%,0%
COc1cccc(C(=O)NCCSCc2c(F)cccc2Cl)c1,-6.2,2,1%,-14%[15.4 µM],15,-1.2%,-1%
C=CCn1c(SCC(=O)NC2CCCCC2)nnc1-c1ccc(OC)cc1,3.9,-1,2%,-2%,3,0.9%,6%
CCOC(=O)c1cnc2cc(C)nn2c1-c1ccccc1,3.5,3,28%,4%,3,2.7%,-10%
O=Cc1cn(CC(=O)Nc2ccc(F)cc2)c2ccccc12,1.4,-10,9%,8%[15.4 µM],-12,.,3%
Cc1ccc(NC(=O)CN2C(=O)NC3(CCc4ccccc43)C2=O)cc1 (stereo unspecified),0.1,-7,10%,-8%,-19,-1.2%,1%
CC1CCCC(C)N1S(=O)(=O)c1ccc(S(=O)(=O)NCc2ccccc2)cc1 (stereo unspecified),-1.0,-22,5%,-25%,?,0.7%,2%
CCN(CC)CCCN(Cc1cc2cc3c(cc2[nH]c1=O)OCO3)C(=O)Nc1ccccc1OC,0.5,-14,13%,-1%,25,32µM*,6%
Fc1ccc(CSc2nncn2NCc2ccc3c(c2)OCO3)cc1,0.4,-30,8%,-13%[15.4 µM],-7,-7.0%,-7%
Cc1ccc(S(=O)(=O)N2CCOCC2)cc1NC(=O)COc1ccc2c(C)cc(=O)oc2c1,.,-16,16%,?,-3,32µM*,-2%
COc1ccccc1NC(=O)N1C2CCCC1CC(NC(=O)c1ccccc1)C2 (stereo unspecified),4.0,-4,21%,0%,-10,.,-3%
CN(C)CCNc1ncnc2c1sc1nc(N3CCOCC3)c3c(c12)CC(C)(C)SC3,1.7,-7,1%,0%,-2,-20%,14%
COc1ccccc1NC(=O)CSCc1ccc([N+](=O)[O-])cc1,2.4,-3,5%,30%,?,-0.5%,-14%
Cn1cnnc1SCC(=O)Nc1ccc(S(=O)(=O)N2CCOCC2)cc1,.,7,.,-6%,1,0.9%,14%
CC(C)N(CCc1ccncc1)C(=O)Nc1ccc(F)cc1,0.6,-2,21%,-80%[inhibitor],.,0.1%,-3%

(more compounds)
molecule,Menin-MLL FL inh,D2 potentiator,Sfp inh,gsp agonist,TRPV1 potentiator,ClpP mod,gsp antagonist
COc1ccc(-c2oc3ccc(-c4cc(OC)c(OC)c(OC)c4)cc3c2C(=O)c2ccc(OC)nc2)cc1,3.3,-10,-5%,.,0,-0.7%,6%
CCCc1ccc(-c2cc(C(=O)N3CCN(c4ccccn4)CC3)c3ccccc3n2)cc1,-1.3,-8,2%,3%,-1,-23%,-7%
CCOCCCNC(=O)c1cc(Nc2ccc(OC)cc2OC)nc2ccccc12,0.7,-10,7%,38%,-10,0.5%,-1%
O=C(Nc1ccccc1F)c1ccc(CSc2ccccc2)o1,-1.6,0,?,-32%[inhibitor],-8,0.5%,-3%
CNc1ccc(C2(O)C(=O)c3ccccc3C2=O)cc1,2.3,-1,5%,-49%[inhibitor],5,.,10%

Compound activity from PubChem.
